# Assay outcomes deposited in PubChem by several laboratories.
# Vif A3G – HIV-1 Vif–A3G interaction blockers – biochemical, TR-FRET, GST-Vif 1-94, biotin-A3G peptide, dose response retest, primary screen (AID 1117319) | TR-FRET GST-Vif / biotin-A3G peptide binding; higher % means a stronger effect; test concentration not given here; strong numbers were not always called active | inhibition, %; hits with a dose series show IC50 in µM | 0.57% of 260,000 active;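 active = above the screen mean plus three standard deviations and confirmed in dose response; inconclusive = results disagree or hit not tested in dose response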;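 note: Vif residues 1-94 fused to GST binding biotinylated APOBEC3G peptide 110-148; 0% = full assay without inhibitor and 100% = GST in place of GST-Vif; retest series ran down from 100 µM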
# LANA-H2A inh – blocks KSHV LANA binding to histone H2A/H2B; Q9QR71; cell-free LANA-H2A/H2B peptide, fluorescence polarization; inhibition, % (test concentration not listed); 0.6% of 320,000 active; AID 2629; in the data active = inhibition mostly above about 10%, no sharp cut-off; inactive = mostly below about 6.7%;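 note: stock transfer was 7.5 nL into about 10 µL; 0% = median of vehicle wells and 100% = median of positive control wells; one replicate is shown; the record names a cut of 25% in any replicate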
# RanGTP-Imp inh – disruptors of Ran-importin-beta complex formation – biochemical, FRET, CFP-Ran, YFP-importin-beta, homogeneous, primary screen. 1.1% of 300,000 active. cell-free CFP-Ran/YFP-importin-beta FRET ratio. inhibition, % (test concentration not listed);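 active = most replicates above 15%; inconclusive = exactly half above 15%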;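 note: 0% = DMSO wells and 100% = Ran loaded with GDP instead of GTP; wells of about 40 µL received 100 nL stock; the first replicate is given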
# B2AR ag – activates human beta-2 adrenergic receptor causing internalization; P07550; response, % (concentration not given with the values); Am2.2-beta2AR cells, FAP receptor internalization, flow cytometry; reference of the scale not given here; 0.43% of 340,000 active;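 active = response above a set limit, near 3 SD of response in nonfluorescent compounds, cut at about 42% in these data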;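 note: stock transfer was 100 nL into about 11 µL; a reference agonist was the positive control; negative values mostly stem from fluorescent compounds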
# Target sequence (P07550 whole entry, looked up): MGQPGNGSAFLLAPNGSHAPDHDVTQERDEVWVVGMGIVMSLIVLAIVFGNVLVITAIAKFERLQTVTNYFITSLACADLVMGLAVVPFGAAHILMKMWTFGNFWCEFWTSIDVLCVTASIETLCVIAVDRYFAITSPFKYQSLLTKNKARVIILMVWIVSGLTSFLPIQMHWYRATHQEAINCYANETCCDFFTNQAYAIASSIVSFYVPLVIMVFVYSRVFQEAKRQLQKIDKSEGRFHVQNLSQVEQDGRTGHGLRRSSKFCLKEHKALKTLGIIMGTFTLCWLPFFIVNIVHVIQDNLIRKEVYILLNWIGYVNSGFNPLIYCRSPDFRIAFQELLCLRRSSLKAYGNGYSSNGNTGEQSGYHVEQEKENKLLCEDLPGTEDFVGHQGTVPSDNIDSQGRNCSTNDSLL
# Calb FLC – affects C. albicans growth with fluconazole | 0.57% of 300,000 active | C. albicans CaCi-2 (fluconazole-resistant clinical isolate) + fluconazole, Alamar Blue growth, 48 h | AID 1979 | growth inhibition, % (test concentration not listed);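 active = most replicates above 75%; inconclusive = exactly half above 75%; inactive = most below 75%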;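 note: all wells also contain fluconazole at 8 µg/ml as a sub-toxic cotreatment; 0% = median of DMSO wells and 100% = median of geldanamycin control wells; wells of about 8 µL received 7.5 nL stock; the first replicate is given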
# HNF4A DNA FP – change in binding of human HNF4 alpha to DNA; HNF4a-FITC DNA binding, fluorescence polarization, 1 h; activity change, % at 10 µM; 0.3% of 360,000 active; AID 1224865; in the data active = activity change above about 30%, passing the limit was not always enough;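 note: controls were the assay level and a saturating level of protein; the project sought stronger binding though the title names inhibitors; some compounds called inactive have numbers as strong as hits; positive values seem to mean higher polarization but the record does not say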
# ALR inh – inhibitors of human sulfhydryl oxidase ALR; 3.8% of 290,000 active; purified ALR, DTT oxidation, H2O2 HRP-luminol luminescence; inhibition, % (test concentration not listed); P55789; AID 485317;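 active = mean and each replicate at 75% or more; inconclusive = only one of the two met; inactive = neither met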;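 note: stock transfer was 7.5 nL into about 7.5 µL; 0% = neutral wells and 100% = wells with inactivated enzyme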
# Target sequence (P55789 whole entry, looked up): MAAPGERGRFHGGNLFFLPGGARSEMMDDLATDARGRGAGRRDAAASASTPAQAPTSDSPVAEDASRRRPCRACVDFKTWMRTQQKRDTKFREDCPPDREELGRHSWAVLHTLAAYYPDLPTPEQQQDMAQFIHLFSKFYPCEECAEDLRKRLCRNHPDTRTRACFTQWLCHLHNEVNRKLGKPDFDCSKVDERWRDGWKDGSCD
# * = called active by the depositor; ? = inconclusive; . = not tested or not shown.
# Every second line gives: Vif A3G, LANA-H2A inh, RanGTP-Imp inh, B2AR ag, Calb FLC, HNF4A DNA FP, ALR inh
1. CC1=NN2C(=N)/C(=C\c3cc(C)n(Cc4ccccc4)c3C)C(=O)N=C2S1
  0%, -2.8, ?, 8, 9, 12, 97*
2. CCNC(=S)N(CCc1cccc(C)c1)Cc1cc2cc(OC)c(OC)cc2[nH]c1=O
  -13%, 1.6, -3.5, 2, -6, -3.9, -15
3. CCn1c(NC(=O)c2ccc(COc3ccc(C)cc3[N+](=O)[O-])o2)nc2ccccc21
  4%, -0.3, 3.1, -4, -2, 2.1, -6
4. CCc1ccc2c(c1)C(C)=CC(C)(C)N2
  12%, 1.5, 0.8, 4, -2, -2.2, 14
5. O=C(Nc1cccc(S(=O)(=O)N2CCCC2)c1)c1cccnc1
  2%, -5.0, 2.4, -3, 8, 3.5, -9
6. CN(Cc1ccc(F)cc1)Cc1nc(CCc2ccccc2)no1
  ., 2.1, 0.5, -2, 0, -2.0, -33
7. CCOc1ccc(N(CC(=O)NCc2ccc(Cl)cc2)S(=O)(=O)c2ccccc2)cc1
  ., 4.1, 3.5, -2, 1, 0.5, .
8. Nn1c(Cc2cccc3ccccc23)nnc1SCCOc1ccc(F)cc1
  ., 4.2, -1.7, 4, -12, -0.4, -3
9. O=C(O)CC1S/C(=N/N=C/C=C/c2ccccc2[N+](=O)[O-])NC1=O (centres undefined)
  ., -1.2, 0.9, 3, -7, 2.5, 3
10. Cc1nc([N+](=O)[O-])cn1CC(=O)c1ccc(Cl)cc1
  -9%, -2.2, -2.7, 2, 6, 1.2, 1
11. COc1ccccc1OCC(=O)Nc1nnc(-c2ccco2)s1
  2%, ., 0.2, -13, 7, 1.0, .
12. COc1cccc(C(=O)NC2CC(C)(C)Cc3c2cnn3-c2cccc(F)c2)c1OC (centres undefined)
  9%, -0.6, 6.5, -5, -9, -1.4, -5
13. O=C(Cn1cc(C(=O)C(F)(F)F)c2cc(Br)ccc21)N1CCOCC1
  -8%, 5.3, -1.8, -1, 1, 0.9, -2
14. CC(C)CC(c1nnnn1C1CCCCC1)N1CCN(c2ncccn2)CC1 (centres undefined)
  63%, -0.3, -5.5, -6, -18, 3.3, 36
15. Oc1ccc(-c2csc(-c3cccnc3)n2)cc1O
  19%, -1.8, -0.7, -110, -13, 0.1, 5
16. Cc1cccc(OCCC(=O)NNC(=O)Cn2nc(C)cc2C)c1
  ., 6.8, ., -2, ., 2.1, -3
17. O=[N+]([O-])c1ccccc1S(=O)(=O)Nc1cccnc1
  ., 0.1, 4.0, -7, -1, 0.9, .
18. COc1ccc(-c2nc(NC(=O)Cn3ccc(C(F)(F)F)n3)sc2C)cc1
  3%, -2.5, -1.6, 9, -10, 2.1, .
19. Cc1cccc(C)c1-n1nnnc1-c1cnccc1C(F)(F)F
  32%, -3.7, -1.8, -5, 5, -1.4, -1
20. COc1ccc(C(=O)Nc2cc(C)c3c(=O)oc4ccccc4c3n2)cc1
  -35%, -3.2, 0.5, 3, -4, 2.3, 1

# Single records (already shown). Order of screens: Vif A3G	LANA-H2A inh	RanGTP-Imp inh	B2AR ag	Calb FLC	HNF4A DNA FP	ALR inh
# Cc1nc([N+](=O)[O-])cn1CC(=O)c1ccc(Cl)cc1 is listed with -9%	-2.2	-2.7	2	6	1.2	1
# O=C(Cn1cc(C(=O)C(F)(F)F)c2cc(Br)ccc21)N1CCOCC1 is listed with -8%	5.3	-1.8	-1	1	0.9	-2
# CCn1c(NC(=O)c2ccc(COc3ccc(C)cc3[N+](=O)[O-])o2)nc2ccccc21 is listed with 4%	-0.3	3.1	-4	-2	2.1	-6
# O=C(Nc1cccc(S(=O)(=O)N2CCCC2)c1)c1cccnc1 is listed with 2%	-5.0	2.4	-3	8	3.5	-9
# CCOc1ccc(N(CC(=O)NCc2ccc(Cl)cc2)S(=O)(=O)c2ccccc2)cc1 is listed with .	4.1	3.5	-2	1	0.5	.

# ALR inh, hit marks shown above.
no.	Compound	Vif A3G	LANA-H2A inh	RanGTP-Imp inh	B2AR ag	HNF4A DNA FP	ALR inh
1	CC1=NN2C(=N)/C(=C\c3cc(C)n(Cc4ccccc4)c3C)C(=O)N=C2S1	0%	-2.8	?	8	12	97*

# Part of the list above in order of molecular weight, ascending:
# Every second line gives: Vif A3G, LANA-H2A inh, RanGTP-Imp inh, B2AR ag, Calb FLC, HNF4A DNA FP, ALR inh
17. O=[N+]([O-])c1ccccc1S(=O)(=O)Nc1cccnc1
  ., 0.1, 4.0, -7, -1, 0.9, .
16. Cc1cccc(OCCC(=O)NNC(=O)Cn2nc(C)cc2C)c1
  ., 6.8, ., -2, ., 2.1, -3
5. O=C(Nc1cccc(S(=O)(=O)N2CCCC2)c1)c1cccnc1
  2%, -5.0, 2.4, -3, 8, 3.5, -9
14. CC(C)CC(c1nnnn1C1CCCCC1)N1CCN(c2ncccn2)CC1 (centres undefined)
  63%, -0.3, -5.5, -6, -18, 3.3, 36
8. Nn1c(Cc2cccc3ccccc23)nnc1SCCOc1ccc(F)cc1
  ., 4.2, -1.7, 4, -12, -0.4, -3

# More records follow.
# Every second line gives: Vif A3G, LANA-H2A inh, RanGTP-Imp inh, B2AR ag, Calb FLC, HNF4A DNA FP, ALR inh
21. COc1ccc(CNCC(O)(c2ccc(F)cc2)c2ccc(F)cc2)cc1OC
  2%, 4.9, 2.5, 5, 4, 1.7, -7
22. C1CN(CCN2CCOCC2)CCN1
  6%, -1.3, -2.3, -5, -5, 4.1, -4
23. CC(=O)Oc1ccc(N2C(=O)CCC2=O)cc1
  ?, -2.6, -0.9, -7, -3, -2.2, 4
24. CCS(=O)(=O)c1nc(S(=O)(=O)c2ccc(C)cc2)c(N2CCCC(C)C2)s1 (centres undefined)
  ., -1.6, -4.7, -1, 8, -2.4, -1
25. CN(C(=O)CSc1nc2c(cnn2-c2ccccc2)c(=O)[nH]1)C1CCS(=O)(=O)C1 (centres undefined)
  13%, 0.9, 1.4, ., 4, ., 0
26. COC(=O)c1ccc2c(=O)n(CCCN3CCCC3=O)c(=S)[nH]c2c1
  2%, 2.0, -1.9, -8, -2, -2.0, 28
27. O=C(O)CSc1cc(NS(=O)(=O)c2ccc(Cl)cc2)c2ccccc2c1O
  ., -1.2, -3.8, 1, 58, 1.9, 8
28. O=S(=O)(O)c1cccc2c(N=Nc3ccc(O)c4ncccc34)cccc12
  14µM*, -1.7, 16*, 2, 84*, -31, 33
29. COc1cccc(NC(=O)NC2(C(=O)N3CCC(O)CC3)CCCCC2)c1
  ., 1.0, -4.0, -4, -4, -0.6, -2
30. CN(C(=O)c1ccc(Br)o1)C1(C)CCS(=O)(=O)C1 (centres undefined)
  6%, 6.4, ., 4, ., -3.0, -1
31. Cc1ccc(SCC(=O)OCC(=O)N(CC(C)C)C2CCS(=O)(=O)C2)cc1C (centres undefined)
  -5%, -0.8, 2.3, 1, -2, 0.2, -7
32. CCOC(=O)N1CCN(S(=O)(=O)c2cc(Br)cc3c2N(C(C)=O)C(C)C3)CC1 (centres undefined)
  -2%, -2.6, 4.1, 3, -7, -1.8, -6
33. CN(Cc1ccco1)C(=O)CCc1nc2sc3c(c2c(=O)[nH]1)CCCC3
  ., -0.7, 0.0, -9, 6, 2.8, 9
34. CCNc1ccc(Br)cc(C(=O)/C=C/c2ccc3c(c2)OCO3)c1=O
  25µM*, 5.8, -3.6, -5, -4, -11, 13
35. O=C(O)c1occc1CSc1ccccc1
  -6%, 0.9, -2.4, -5, -3, -0.6, -4
36. CS(=O)(=O)NCCCCCCNS(C)(=O)=O
  -1%, -0.1, 4.9, -4, 17, 2.2, -5

# This is a random part of the collection; overall some 6.3% were active at least once.
